Bioassay records as filed in PubChem.
NPYLR7 agonist: agonists of mosquito NPYLR7 receptor, primary screen, cell-based, Aedes aegypti, calcium fluorescence, mosquito biting behavior; Aedes aegypti neuropeptide Y-like receptor 7 (NPYLR7); HEK293T NPYLR7/Galpha15, GCaMP6s calcium fluorescence; activation, % at 10 µM; 270,000 tested, 0.15% active; AID 1259423, 2018; in the data active means activation above about 40%;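 further: 0% = vehicle and 100% = reference agonist at the receptor; some compounds past the cut are filed as inactive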
NPYLR7 agonist max-min: further read-out of NPYLR7 agonist, marked with its call; activation, %; measured here: Max-Min RFU normalised activation; some inactives read as strong as hits;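 span of the calcium signal over five minutes; 0% = vehicle and 100% = native peptide agonist; compound fluorescence can raise it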
The depositor's hits bear a star; & = joins results of further samples. This is a subset (hit frequency here may not be typical).

SMILES	NPYLR7 agonist	NPYLR7 agonist max-min
CC(C)Cc1cc(-c2nc3c([nH]2)CC(C)(C)CNC3=O)on1	-3	-3
COC(=O)CN1C(=O)N(CCc2ccccc2)C2(CCN(Cc3cc4ccccc4[nH]3)CC2)C1=O	11	3
CN(C)c1ccc(NC(=O)c2ccco2)cc1CN(CC1CC1)C(=O)c1cccs1	23	23
CCCCOc1ccc(S(=O)(=O)NC(=O)C2(C)CCN2C(=O)Cc2ccccc2Cl)cc1 (centres undefined)	2	-1
CC1(C)O[C@@H]2C[C@@](OCc3cccc(F)c3)(C(=O)NCC3CC3)CC(OCc3cccc(C(F)(F)F)c3)[C@@H]2O1 (some centres undefined)	-1	4
O=C(NC1CCC(n2cnnc2)CC1)C1CC12CCCC2 (centres undefined)	6	5
Fc1ccc(SCc2csc(-c3ccc(Cl)cc3)n2)cc1	4	2
Cc1ccc(C(C)NC(=O)CN(C(=O)Cn2cnc(C)c2C)C(C)c2ccc(C)c(C)c2)cc1C (centres undefined)	-1	10
CCSc1ncc(CN2CCN(c3nc4ccccc4o3)CC2)cn1	-4	-4
CCn1nc(C)c(NC(=O)CN2CCC(O)(c3ccc(Cl)cc3)CC2)c1C	12	4
COc1ccc(COC(=O)C2=C(C)NC(=O)NC2c2cccc(OC)c2OC)cc1 (centres undefined)	1	-2
CCCC(NC(=O)CC12CC3CC(CC(C3)C1)C2)c1nccn1C (centres undefined)	-4	-9

Complete entries from above.
Listed for CCn1nc(C)c(NC(=O)CN2CCC(O)(c3ccc(Cl)cc3)CC2)c1C → NPYLR7 agonist = 12; NPYLR7 agonist max-min = 4
Listed for CC(C)Cc1cc(-c2nc3c([nH]2)CC(C)(C)CNC3=O)on1 → NPYLR7 agonist = -3; NPYLR7 agonist max-min = -3
Listed for CC1(C)O[C@@H]2C[C@@](OCc3cccc(F)c3)(C(=O)NCC3CC3)CC(OCc3cccc(C(F)(F)F)c3)[C@@H]2O1 (some centres undefined) → NPYLR7 agonist = -1; NPYLR7 agonist max-min = 4

The listing continues:
SMILES	NPYLR7 agonist	NPYLR7 agonist max-min
Cc1ccc(Oc2ccc(C(=O)Nc3ccc(Nc4cc(N5CCOCC5)nc(C)n4)cc3)cc2)nn1	-4	-7
Cc1cc(C)n(-c2cccc(CN3CCc4ccc(NC(=O)C5CCCO5)cc4C3)c2)n1 (centres undefined)	5	2
Cc1ccc(CN2CCN(C(=O)CS(C)(=O)=O)CC2=O)cc1	8	4
CCOC(=O)N1CCN(C2CCCN(C(=O)c3ccccc3N(C)C)C2)CC1 (centres undefined)	2	-4
CCOc1ccc(-c2ccc(=O)n(CCNC(=O)C3CCCCC3)n2)cc1	0	-1
O=S(=O)(Nc1cccc(Br)c1)c1ccc(Br)s1	1	2
O=C(CNC(=O)c1ccccc1)NN=Cc1ccccc1F	1	-3
Cc1ccccc1C(=O)N[C@@H]1CCCCC1NC(=O)C1CCN(C(=O)c2ccc(Cl)c(Cl)c2)CC1 (some centres undefined)	13	14
CCC(=O)Nc1ccc(OCC(=O)N[C@H]2COC[C@@H]2N2CCOCC2)cc1	1	0
O=C(NC1CC1c1ccccc1)C1(c2ccc(Cl)cc2Cl)CCOCC1 (centres undefined)	13	12
CC(C)N1CCN(C(=O)CCNc2nccc(N3CCC(O)C3)n2)CC1 (centres undefined)	-2	-7
COc1ccc(C(=O)N2CCC2(C)C(=O)O)cc1F (centres undefined)	0	-2
NS(=O)(=O)c1ccc2c(c1)SC1=NS(=O)(=O)CCN12	12	7
Cc1ncc(-c2ccc(C)c(S(=O)(=O)N[C@@H]3CC[C@@H](N)C3)c2)o1	3	1
CC(C)CNC(=O)c1cc(NC(=O)c2ccc(C(C)(C)C)cc2)ccc1N1CCCC1	-6	-2
COc1ccc(OC)c(C2CC(c3ccccc3F)=NN2C(=O)CN2CCCCC2)c1 (centres undefined)	2	7
COc1cccc(C(=O)Nc2ccc(C3SCC(=O)N3c3ccc(F)cc3)cc2)c1 (centres undefined)	8	16
COc1cc(CNc2nn[nH]n2)ccc1OCc1ccc(Cl)cc1	-19	-22
CC(=O)N1C(C(=O)O)Cc2c([nH]c3ccccc23)C1C (centres undefined)	-10	-20
CC1CCc2c(sc3nc(C(C)C)nc(N4CCN(C(=O)NCc5ccccc5)CC4)c23)C1 (centres undefined)	16	18
CCOc1ccc(C(=O)Nc2cc(-c3nc4ccccc4o3)ccc2C)cc1[N+](=O)[O-]	13	10
O=C(Cn1nnnc1CN1CCCC1)N1CCN(c2nc3ccccc3o2)CC1	3&0	-3&-1
COCCn1cncc1CNc1ncc2c(n1)CCN2c1ccccc1	2	7
COc1cc(OC)cc(C(=O)Nc2c(C#N)cnn2C)c1	-1	-4

Brought forward from above: 2 compounds, then new ones.
SMILES	NPYLR7 agonist	NPYLR7 agonist max-min
COCCn1cncc1CNc1ncc2c(n1)CCN2c1ccccc1	2	7
COc1cc(OC)cc(C(=O)Nc2c(C#N)cnn2C)c1	-1	-4
O=C(c1ccc2cccnc2n1)N1C[C@@H]2[C@H](C1)[C@H]1CC[C@@H]2O1	0	4
O=C(NCc1ccc(F)cc1)c1coc(CN(CCc2c[nH]c3ccccc23)Cc2ccccc2Cl)n1	19	15
Cc1ncc(COC(=O)c2oc3c(c2C)C(=O)CC(C)(C)C3)s1	-3	-4
CCOC(=O)c1sc(NC(=O)c2ccc([N+](=O)[O-])s2)nc1C	7	3
CC(C)c1ccc(C2NC(=O)N(C)C3=C2C(=O)N(CCc2ccccn2)C3)cc1 (centres undefined)	-5	-1
COc1cc(CNC(=O)c2sc(C)nc2-c2ccccc2)ccc1O	2	-3
COc1cc(CN2C(=O)C(C)(C)ON=C2c2ccco2)cc(OC)c1	-3	-2
CC(C)(C)c1cc(CN2CCCN3CCC[C@H]3C2)[nH]n1	6	4
O=C(Nc1sc2c(c1C(=O)Nc1ccc(Cl)cc1)CCCC2)c1ccc(Br)cc1	-13	-18
Cc1nc(SCC(=O)N2CCOCC2)c2c3c(sc2n1)CCC3	0	-1
CCCCN(Cn1nc(-c2ccc(C)cc2)n(C)c1=S)C1CCS(=O)(=O)C1 (centres undefined)	13	14
COc1cccc(CNC(=O)C2CCN(C(=O)[C@H](Cc3ccccc3)NC(=O)Nc3ccc(-c4ccccc4)cc3)CC2)c1	4	0

Next section; it opens with the four that closed the last part.
SMILES	NPYLR7 agonist	NPYLR7 agonist max-min
O=C(Nc1sc2c(c1C(=O)Nc1ccc(Cl)cc1)CCCC2)c1ccc(Br)cc1	-13	-18
Cc1nc(SCC(=O)N2CCOCC2)c2c3c(sc2n1)CCC3	0	-1
CCCCN(Cn1nc(-c2ccc(C)cc2)n(C)c1=S)C1CCS(=O)(=O)C1 (centres undefined)	13	14
COc1cccc(CNC(=O)C2CCN(C(=O)[C@H](Cc3ccccc3)NC(=O)Nc3ccc(-c4ccccc4)cc3)CC2)c1	4	0
COc1ccc(CN(Cc2ccc(C(O)(C=C(C)C)C=C(C)C)o2)C2CC2)cc1	3	4
Cc1ccc(S(=O)(=O)O/N=C2/CCCc3nonc32)cc1	1	0
CN(C1CCN(C(=O)OC(C)(C)C)CC1)S(=O)(=O)c1ccc(F)c(F)c1	7	5
Fc1ccc(N2CCn3c2n[nH]c3=S)cc1	-3	-4
CC(=O)Nc1sc(C)c(C)c1C(=O)OCC(=O)NCCN1C(=O)CSC1=O	-1	-6
CC(=O)C1=C(C)OC(=N)C(C#N)C1c1cccc(Cl)c1 (centres undefined)	2	2
Cc1c(C(=O)N(C)C2CCS(=O)(=O)C2)nnn1-c1ccccc1 (centres undefined)	3	4
CC(=O)c1cc(C(=O)OCC(=O)Nc2ccccc2Cl)c2ccccn12	3	-7
Cc1onc(-c2c(F)cccc2Cl)c1C(=O)OCC(=O)N1CCOCC1	-3	-4
COc1ccc(C(=O)NCCNc2ccc(Nc3ccccn3)nn2)cc1	19	12
COC(=O)c1ccc(Nc2nnc(-c3ccc(C(=O)NCCO)cc3)c3ccccc23)cc1	-5	-13
CSc1ccccc1NS(=O)(=O)c1ccccc1F	-1	-1
O=C(CNC(=O)c1ccccc1O)N=Nc1c(O)[nH]c2ccccc12	4	-13
Cc1cccc(Oc2cc(N(C)Cc3ccccc3)ncn2)c1	17	21
O=C(Nc1nc(C23CC4CC(CC(C4)C2)C3)cs1)c1ccccc1F	-2	-2
COc1ccc(-n2c(C)c(C)n3c4c(=O)n(CC(C)=O)c(=O)n(C)c4nc23)cc1Cl	-1	21
CC(=O)OC(C(=O)N1CCC(CCc2ccc3c(c2)OCO3)CC1)c1ccccc1 (centres undefined)	-1	2
Cc1ccc(S(=O)(=O)/C(C#N)=C/N2CCN(c3ccccc3)CC2)cc1	-3	-4
Oc1ccc(-c2n[nH]c(C(F)(F)F)c2-c2cscn2)c(O)c1	-5	-13
CCOC(=O)c1cn(Cc2c(F)cccc2Cl)nc1S(=O)(=O)N1CCSCC1	-11	-13
CCC(C)c1ccc2oc(-c3ccc(NC(=O)c4ccc(OC)c(Cl)c4)cc3)nc2c1 (centres undefined)	1	0
CN1CC2(CCN(C(=O)c3cc(F)cc(Cl)c3)C2)OC1=O (centres undefined)	10	6
CCOc1ncccc1C(=O)NNC(=O)COc1ccccc1F	16	13
CC(C)CN1CCCN(C(=O)CSc2n[nH]c(N)n2)CC1	28	12
CCn1cc(C(=O)N2CCN(c3cc(N(C)c4cccc(C)c4)ncn3)CC2)c(=O)c2ccc(C)nc21	-4	-4
COCC(=O)N(c1c(C)cccc1C)C(C)C(=O)N1CCN(Cc2ccc3ccccc3c2)CC1 (centres undefined)	5	18
Cc1cccc(NC(=O)CSc2nnc(CNC(=O)COc3ccc(Cl)cc3)n2-c2ccc(Cl)c(Cl)c2)c1	-10	-6
CCC(C)C(NC(=O)Nc1cccc(F)c1)C(=O)Nc1nnc(-c2ccc(N(C)C)cc2)s1 (centres undefined)	-5	-2
CC1CCc2[nH]nc(C(=O)N3CCN(C(=O)c4ccccc4)CC3)c2C1 (centres undefined)	0	-2
C=CCN(CC#Cc1ccccc1)Cc1ccncc1	21	15
COc1ccccc1-c1noc(CCC(=O)N(C)C(C)c2ccon2)n1 (centres undefined)	13	0
N#Cc1ccc(C(=O)C=Cc2ccc(O)cc2)cc1	7	5
Cc1cccc(Nc2nc3nonc3nc2N/N=C\c2cc3c(cc2Br)OCO3)c1C	-5	-10
COc1ccc(CCOC(=O)c2ccc(C(N)=O)cc2)cc1	-4	-6
O=C(Nc1ccc(-c2noc(-c3cccs3)n2)cc1)c1ccco1	-1	-3
CCN(CC)S(=O)(=O)c1ccc2c(c1)nc(SCc1ccc(OC(F)F)cc1)n2C(C)C	26	17
Cn1c(=O)c2c(ncn2CCS(=O)(=O)NCc2ccco2)n(C)c1=O	6	6
Cc1cccc(-c2ccc(C(=O)N(C)CC3COc4ccccc4O3)cn2)c1C (centres undefined)	-5	-14
CC(C)NC(=O)C(C#N)C(=O)CN1CCCCCC1=O (centres undefined)	1	-7
COCc1nn2c(nnc3c(=O)n(Cc4ccccc4)ccc32)c1-c1ccc(F)cc1	-2	4
COc1ccc(OC)c(NS(=O)(=O)c2c(C)noc2C)c1	-3	-3
O=S(=O)(c1ccc(S(=O)(=O)N2CCN(c3ncccn3)CC2)cc1)N1CCCCCC1	4	0
Cc1noc(C)c1CNC(=O)NCC1CCCOC1 (centres undefined)	7	4
Cc1cc(-c2ccc(N(C)C)cc2)nc(N)n1	0	-19
O=C(Cn1cnc([N+](=O)[O-])n1)Nc1cc(Oc2ccc(F)cc2)cc([N+](=O)[O-])c1	-12	-19
O=C(Nc1ccc(Oc2ccccc2)nc1)C1CCN(CC2CC=CCC2)CC1 (centres undefined)	-2	-3
COc1ccccc1-n1c(SCc2nc(C(=O)N3CCN(c4ccccc4F)CC3)cs2)nnc1-c1ccncc1	-4	4
CC1=CN(C2=NS(=O)(=O)c3ccccc32)C(C)(O)C1 (centres undefined)	2	0
O=C(c1ccc(N2CCC(NC3CCOC3)CC2)cc1)N1CCc2ccccc2C1 (centres undefined)	5	1
CC(C)c1ccc(C(=O)N2CCn3c(nnc3C(=O)N(C)C)C2)cc1	7	0
Cc1noc(C)c1C(=O)N1CCC(n2c(=O)oc3cccc(C)c32)CC1	14	17
COc1ccc2oc(=O)c(C(=O)Nc3cc(C(F)(F)F)ccc3Cl)cc2c1	-4	-8
Cc1nc(N2CCOCC2)sc1CNCC1CN(C)CCO1 (centres undefined)	0	-2
COc1ccc(Nc2nc3c([nH]2)c(=O)[nH]c(=O)n3C)cc1	-2	-1
COc1cccc(C(CNC(=O)Nc2cccc([N+](=O)[O-])c2)N2CCCC2)c1 (centres undefined)	1	31
Cc1ccc(C)c(NC(=O)CSc2nnnn2C)c1	-4	-6
Cc1cccc(Cn2c(=O)c(C(=O)NCCN3CCOCC3)nn(-c3ccc(Cl)cc3)c2=O)c1	3	14
Cc1cccc2nc(C(=O)N(C)CC(=O)Nc3ccccc3Br)cn12	2&12	-3&4
